High-throughput results deposited in PubChem by National Center for Advancing Translational Sciences (NCATS).
AmpC inh detg = blocks E. coli AmpC beta-lactamase in detergent assay. P00811. AmpC hydrolysis of nitrocefin, absorbance 480 nm, 0.01% Triton. Potency, µM (doses to about 114 µM), without a hit: top-dose activity change, negative = inhibition, most hits filed as inhibitors. 370,000 tested, 0.041% active. AID 485294;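 also: 0% = no-compound wells and -100% = no-enzyme wells; nearly all actives have a fitted effect of over 25% in size; some results filed as inactive show a strong effect at the top dose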
Target sequence (P00811 whole entry, looked up): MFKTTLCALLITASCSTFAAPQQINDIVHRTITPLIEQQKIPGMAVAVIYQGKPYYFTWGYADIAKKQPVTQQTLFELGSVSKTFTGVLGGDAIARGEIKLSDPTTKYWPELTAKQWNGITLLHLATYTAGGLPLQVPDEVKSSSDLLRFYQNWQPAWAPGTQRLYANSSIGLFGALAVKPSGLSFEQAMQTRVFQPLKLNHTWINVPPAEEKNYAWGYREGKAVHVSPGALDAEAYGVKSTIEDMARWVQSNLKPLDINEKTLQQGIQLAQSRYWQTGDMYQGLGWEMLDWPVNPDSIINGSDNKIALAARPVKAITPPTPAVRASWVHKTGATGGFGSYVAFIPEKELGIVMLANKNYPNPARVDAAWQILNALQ
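20 mM phosphate pH 7.0 + 0.01% (detergent screen) or 0.0001% Triton X-100; 5.3 nM AmpC reagent; cpd preinc 15 min RT; nitrocefin (800 uM stock) to start; A480 q20 s × 4 min; Activity was normalised to no-enzyme and no-compound control wells.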
Sm TGR inh = inhibitors of Schistosoma mansoni thioredoxin glutathione reductase. Q962Y6. purified TGR, DTNB reduction, TNB absorbance 405 nm. Potency, µM (top dose mostly 114 µM), inactives show at the top dose activity change, negative = inhibition, usual class: inhibitors. 360,000 tested, 3% active; also: nearly all actives have a fitted effect of over 60% in size
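First, TGR (20 nM dispensed) and NADPH were mixed with compound. Second, a 15 min room-temperature incubation followed. Third, further NADPH and then DTNB were added to start the reaction. Finally, TNB absorbance was monitored kinetically.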
Giardia FBPA inh = inhibitors of Giardia lamblia fructose-1,6-bisphosphate aldolase | A8B2U2 | purified Giardia FBPA | Potency, µM (top dose mostly 59.6 µM), inactives show top-dose activity, negative = inhibition, actives largely listed as inhibitors | 290,000 tested, 0.71% active; also: nearly all actives have a fitted effect of over 55% in size
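Giardia FBPA (40 nM reagent) was preincubated 10 min at RT with compound (up to 57.5 uM final), then substrate plus GAPDH/TPI/NAD/arsenate coupling system with diaphorase/resazurin was added; resorufin fluorescence (525/598 nm) was read after 20 min.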
Active calls of the source: *; ? = inconclusive; . = not tested or not shown; & = joins results of further samples. Calls follow the shape of the dose curve; as a rule, active = well fitted curve in the direction sought with a large enough effect; inconclusive = small, poorly fitted or top-dose-only effect, or another doubt; inactive = no such curve, though single readings can be large; an effect the other way counts as inactive or inconclusive. Unless noted, % is scaled to controls: 0 for no effect and ±100 for the full control effect; potency is read from the fitted curve at half-maximal effect. An excerpt (hit frequency here may not be typical).

> Cc1ccc(NC(=O)c2sccc2SCc2cccc(C(F)(F)F)c2)cc1
  AmpC inh detg: ?
  Sm TGR inh: 31%
  Giardia FBPA inh: -6%
> Cc1ccc(S(=O)(=O)n2c(C)nc3ccccc32)cc1
  AmpC inh detg: ?
  Sm TGR inh: 11%
  Giardia FBPA inh: 2%
> NS(=O)(=O)c1ccc(NC(=O)Nc2ccc(Cl)cc2)cc1
  AmpC inh detg: -11%
  Sm TGR inh: .
  Giardia FBPA inh: -4%
> C[C@@H]1CC=C[C@H]2[C@H]1C(=O)N(Cc1ccccc1)[C@H]2c1ccc(-c2ccc(N(C)C)cc2)cc1F
  AmpC inh detg: -5%
  Sm TGR inh: -34%
  Giardia FBPA inh: 3%
> COCc1cc(C)nc(SCC(=O)c2ccc(O)c(O)c2)c1C#N
  AmpC inh detg: -2%
  Sm TGR inh: -22%
  Giardia FBPA inh: ?
> CC(CCN1CCN(CCO)CC1)c1ccccc1 (centres undefined)
  AmpC inh detg: ?
  Sm TGR inh: 7%
  Giardia FBPA inh: ?
> CN(C)c1ccc(-c2cc([C@H]3[C@@H]4C=CCC[C@@]4(C)C(=O)N3Cc3ccccc3)ccc2F)cc1
  AmpC inh detg: 1%
  Sm TGR inh: 4%
  Giardia FBPA inh: 4%
> CN(c1ccccc1)c1ccc([N+](=O)[O-])c2nonc12
  AmpC inh detg: 9%
  Sm TGR inh: 5%
  Giardia FBPA inh: -10%
> Cc1cc(C)c(/C=C2\C(=O)Nc3ccccc32)[nH]1
  AmpC inh detg: -12%
  Sm TGR inh: -39%
  Giardia FBPA inh: -5%&-14%
> NC(=O)C1CCN(C(=O)Nc2ccccc2)CC1
  AmpC inh detg: -11%
  Sm TGR inh: -17%
  Giardia FBPA inh: 8%

The last four compounds of the section above lead into the next.
> CN(C)c1ccc(-c2cc([C@H]3[C@@H]4C=CCC[C@@]4(C)C(=O)N3Cc3ccccc3)ccc2F)cc1
  AmpC inh detg: 1%
  Sm TGR inh: 4%
  Giardia FBPA inh: 4%
> CN(c1ccccc1)c1ccc([N+](=O)[O-])c2nonc12
  AmpC inh detg: 9%
  Sm TGR inh: 5%
  Giardia FBPA inh: -10%
> Cc1cc(C)c(/C=C2\C(=O)Nc3ccccc32)[nH]1
  AmpC inh detg: -12%
  Sm TGR inh: -39%
  Giardia FBPA inh: -5%&-14%
> NC(=O)C1CCN(C(=O)Nc2ccccc2)CC1
  AmpC inh detg: -11%
  Sm TGR inh: -17%
  Giardia FBPA inh: 8%
> CCCCn1c(=O)[nH]c(=O)c2c1nc(CN(C)Cc1cccc(OC)c1OC)n2CCC
  AmpC inh detg: -1%
  Sm TGR inh: 1%
  Giardia FBPA inh: ?
> N#Cc1ccc(CNC(=O)N2CCOCC2)cc1
  AmpC inh detg: -4%
  Sm TGR inh: -20%
  Giardia FBPA inh: 2%
> CN1C(=O)C2C(c3ccc(N(C)C)cc3)=NN(Cc3ccccc3)C2C1=O (centres undefined)
  AmpC inh detg: 3%
  Sm TGR inh: -3%
  Giardia FBPA inh: -10%
> COc1cccc(C(=O)Nc2cc3c(cc2N2CCOCC2)n(C)c(=O)n3C)c1
  AmpC inh detg: -1%
  Sm TGR inh: -6%
  Giardia FBPA inh: .

Single records, as listed above. Order of values: AmpC inh detg, Sm TGR inh, Giardia FBPA inh
CCCCn1c(=O)[nH]c(=O)c2c1nc(CN(C)Cc1cccc(OC)c1OC)n2CCC is listed with -1%, 1%, ?
N#Cc1ccc(CNC(=O)N2CCOCC2)cc1 is listed with -4%, -20%, 2%
COc1cccc(C(=O)Nc2cc3c(cc2N2CCOCC2)n(C)c(=O)n3C)c1 is listed with -1%, -6%, .
